Screens from PubChem BioAssay.
AF4-AF9 inh = inhibitors of human MLL-AF4/AF9 interaction; inhibition, % at 10 µM; 350,000 compounds, 0.47% hits; AlphaScreen, biotin-AF4 peptide binding to FLAG-AF9; AID 651704;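 active = every replicate reaching a set inhibition limit, whatever the replicate mean, cut at about 25% in these data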;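 also: 0% = plate neutral control median and 100% = total signal loss; the record names both 10 and 1 µM as test concentration; the first replicate is given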
Target sequence (P42568 whole entry, looked up): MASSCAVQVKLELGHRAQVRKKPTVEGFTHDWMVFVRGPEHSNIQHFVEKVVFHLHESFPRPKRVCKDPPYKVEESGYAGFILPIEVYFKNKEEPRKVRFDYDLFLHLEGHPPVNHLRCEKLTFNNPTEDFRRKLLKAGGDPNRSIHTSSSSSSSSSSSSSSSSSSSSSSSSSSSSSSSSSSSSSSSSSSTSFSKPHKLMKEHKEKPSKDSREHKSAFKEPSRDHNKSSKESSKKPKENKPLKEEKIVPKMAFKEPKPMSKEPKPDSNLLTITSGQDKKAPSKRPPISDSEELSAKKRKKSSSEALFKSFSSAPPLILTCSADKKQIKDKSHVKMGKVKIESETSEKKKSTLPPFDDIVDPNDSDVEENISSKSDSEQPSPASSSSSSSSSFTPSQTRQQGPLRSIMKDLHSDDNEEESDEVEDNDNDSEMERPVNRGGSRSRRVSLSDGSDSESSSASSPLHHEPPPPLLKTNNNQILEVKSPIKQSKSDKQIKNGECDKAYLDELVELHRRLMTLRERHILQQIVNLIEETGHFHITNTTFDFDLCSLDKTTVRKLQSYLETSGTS
Numbers without * were called inactive; & = joins results of further samples.

SMILES	AF4-AF9 inh
Cc1ccc(S(=O)(=O)N2C[C@H]3[C@H]4C(=O)N(C)C(=O)[C@H]4CC(=O)[C@H]3[C@@H]2c2ccccc2F)cc1	-0.9
CCCNC(=O)N1CC2(CN(C(=O)c3cccc(F)c3)C2)c2c([nH]c3cc(OC)ccc23)[C@H]1CO	-0.6
COc1ccc2c3c(n(C)c2c1)[C@@H](CO)N(CC1CC1)CC31CCN(C(C)=O)CC1	-1.9
C[C@@H]1CCCCO[C@H](CN(C)Cc2ccccc2)[C@H](C)CN([C@@H](C)CO)C(=O)c2cc(NS(=O)(=O)c3ccccc3)ccc2O1	2.2
O=C(C[C@@H]1CC[C@@H]2[C@H](COC[C@H](O)CN2Cc2cccc(F)c2)O1)NCCc1ccncc1	-0.9
COCOCCn1cc(CN2CCS(=O)(=O)N(Cc3ccc(-c4ccc(OC)cc4)cc3)C(C(C)C)C2=O)nn1 (centres undefined)	-1.7
CO[C@H]1CN(C)C(=O)c2cc(NC(=O)Nc3cc(F)ccc3F)ccc2OC[C@H](C)NC[C@H]1C	0.0
COC(=O)[C@]12C[C@H](CC(=O)NCc3cccs3)C(=O)N(CCC3=CCCCC3)C1=C[C@H](COCc1ccccc1)O[C@@H]2C	-6.3
CC1=C(C(=O)N2CCOCC2)CC(CC(=O)NC2CC2)C(=O)N1Cc1ccc(F)cc1 (centres undefined)	-12
Cc1ccccc1S(=O)(=O)N1C[C@H]2[C@@H](c3ccccc31)[C@H](CO)N2C(=O)CC1CC1	-5.6
OCC[C@@H]1C[C@H](O)[C@@H](O)[C@@]2(OCCc3cc(Cl)ccc32)O1	-1.0
COc1ccc(S(=O)(=O)Nc2ccc3c(c2)C(=O)N([C@H](C)CO)C[C@@H](C)[C@@H](CN(C)C(=O)CCCN(C)C)OCCCC[C@H](C)O3)cc1	-2.3
CC(C)C[C@H]1CNC(=S)N1CC1CCCN1C[C@H](Cc1ccccc1)N1C[C@H](Cc2ccccc2)N(CC2CCCCC2)C1=S (some centres undefined)	-3.9
CN(C)CC(=O)N[C@H]1CC[C@H](CC(=O)O)O[C@H]1CO	-0.7
Cc1noc(C)c1NC(=O)NCC[C@H]1CC[C@@H](NC(=O)Nc2cccc(F)c2)[C@@H](CO)O1	8.4
CO[C@H]1CC[C@H]2CCOc3c(C#N)cccc3C(=O)N(C)C[C@H](C)C(=O)N(C)C[C@@H]1O2	-7.8
CCCN(C)C[C@H]1OCCCC[C@H](C)Oc2ccc(NS(=O)(=O)c3ccccc3)cc2C(=O)N([C@@H](C)CO)C[C@@H]1C	8.3
Cc1nn(C)cc1NC(=O)C[C@H]1CC[C@@H]2[C@@H](COc3ccc(NC(=O)Nc4cccc(Cl)c4)cc3C(=O)N2C)O1	3.5
O=C(Nc1ccc(Cl)cc1)C1Cc2c(-c3ccc(Cl)cc3)ccnc2O1 (centres undefined)	-3.3
C[C@@H](NC(=O)[C@@H]1[C@@H](CO)[C@@H]2Cn3c(ccc(-c4ccccc4F)c3=O)[C@H]1N2C)c1ccccc1	-0.3
C[C@@H]1CN([C@@H](C)CO)S(=O)(=O)c2ccc(-c3ccccc3)cc2O[C@H]1CN(C)C(=O)C1CCCCC1	4.4
NC(=O)c1ncn([C@@H]2O[C@H](CNS(=O)(=O)c3cc(S(=O)(=O)c4ccccc4)cs3)[C@@H](O)[C@H]2O)n1	0.0
COc1ccc(-n2c(CSc3ccc(Cl)cc3)n[nH]c2=S)cc1	-6.1
CCOc1ccccc1C(=O)OCC(=O)Nc1cccc(S(=O)(=O)NC2=NCCCCC2)c1	0.9

As entered above.
AF4-AF9 inh result of `C[C@@H]1CCCCO[C@H](CN(C)Cc2ccccc2)[C@H](C)CN([C@@H](C)CO)C(=O)c2cc(NS(=O)(=O)c3ccccc3)ccc2O1` stands at 2.2
AF4-AF9 inh result of `Cc1ccc(S(=O)(=O)N2C[C@H]3[C@H]4C(=O)N(C)C(=O)[C@H]4CC(=O)[C@H]3[C@@H]2c2ccccc2F)cc1` stands at -0.9

Other records follow:
SMILES	AF4-AF9 inh
COc1ccc(NC(=O)N2CCCCN3[C@H](CO)[C@@H](c4ccc(C#Cc5ccccc5)cc4)[C@@H]3C2)cc1	-6.6
C#Cc1ccc(NC(=O)C2(C)CCN2C(=O)c2cc(C)n(C)n2)cc1 (centres undefined)	-0.9
O=C(NCc1cc(Cl)cc(Cl)c1)c1csc(COCCO)n1	-1.0
CN1CCN(C(=O)c2cc3c(c(-c4cccc(-c5cccc(C(=O)N(C)C)c5)c4)n2)[C@@H](CCO)N([S@](=O)C(C)(C)C)C3)CC1	-4.6
Cc1ccc(S(=O)(=O)Nc2ccc3c(c2)C(=O)N([C@H](C)CO)C[C@@H](C)[C@H](CN(C)S(=O)(=O)c2ccccc2)OCCCC[C@@H](C)O3)cc1	-2.3
O=C(c1cccc(F)c1)N1CCCCN2[C@H](C1)[C@@H](c1ccc(-c3cncnc3)cc1)[C@@H]2CO	-9.7
CCC(=O)N1CCCCN2[C@H](CO)[C@@H](c3ccc(-c4cccnc4)cc3)[C@H]2C1	-0.9
Cc1nn(C)cc1NC(=O)C[C@H]1CC[C@H]2[C@@H](COc3ccc(NC(=O)NC(C)C)cc3C(=O)N2C)O1	-2.5
C[C@@H]1CN([C@H](C)CO)C(=O)c2cc(-c3ccc(C#N)cc3)cnc2O[C@H]1CN(C)Cc1cccnc1	-3.9
C[C@H](CO)N1C[C@H](C)[C@H](CN(C)Cc2ccccc2C(=O)O)Oc2ncc(C3=CCCCC3)cc2C1=O	-1.8
O=C(Nc1ccc(F)cc1)C(c1ccccc1)N1CCN(CC(=O)N2CCCC2)CC1 (centres undefined)	-1.8
CC(C)C[C@@H](CN1CCC[C@H]1CN1C(=O)C(=O)NC[C@@H]1Cc1ccc(O)cc1)N1C[C@H](Cc2ccccc2)N(CC2CCCCC2)C(=O)C1=O	0.0
COc1cccc(Nc2nc(C(C)N)cs2)n1 (centres undefined)	6.8
O=C(Nc1ccc(F)cc1)N[C@H]1CC[C@@H](CC(=O)N2CCOCC2)O[C@@H]1CO	-1.5
COc1ccc(CN(C)C[C@H]2OCCCC[C@@H](C)Oc3ccc(NC(=O)Nc4ccc5c(c4)OCO5)cc3C(=O)N([C@H](C)CO)C[C@H]2C)cc1	23
CC(C)NC(=O)N1Cc2cc(C(=O)NC3CCCCC3)nc(-c3cccc(-c4cccnc4)c3)c2[C@@H]1CCO	12&7.0
COc1cccc(-c2ccc([C@H]3[C@H]4CN(C(=O)c5ccncc5)CC(=O)N4[C@H]3CO)cc2)c1	-2.1
C[C@H](CO)N1C[C@H](C)[C@H](CN(C)Cc2ccc(C(F)(F)F)cc2)Oc2c(NS(=O)(=O)c3ccccc3)cccc2C1=O	3.8
COc1cccc(-c2ccc3c(c2)[C@@H]2[C@@H](CCN2S(=O)(=O)c2ccc(F)cc2)[C@H](CO)N3C)c1	-2.2
C/C=C/c1ccc([C@H]2[C@H](C#N)N(c3nc(-c4ccccc4)cs3)[C@H]2CO)cc1	-14
COc1ccc(C2CC(=O)Oc3cc(O)ccc32)cc1 (centres undefined)	-1.0
O=C(CN1CCOCC1)N1CCCCN2[C@H](C1)[C@@H](c1ccc(C#Cc3ccccc3F)cc1)[C@@H]2CO	-4.8
C[C@H](NC(=O)[C@@H]1N[C@@H]2c3ccc(-c4ccc(C(=O)N(C)C)cc4)c(=O)n3C[C@@H]2[C@H]1CO)c1ccccc1	0.9
CCC(=O)Nc1ccc2c(c1)C(=O)N(C)[C@H]1CC[C@H](CC(=O)NCc3ccccc3Cl)O[C@H]1CO2	1.2

Another view of some results above:
| mol | AF4-AF9 inh |
| --- | --- |
| COc1cccc(-c2ccc3c(c2)[C@@H]2[C@@H](CCN2S(=O)(=O)c2ccc(F)cc2)[C@H](CO)N3C)c1 | -2.2 |
| C/C=C/c1ccc([C@H]2[C@H](C#N)N(c3nc(-c4ccccc4)cs3)[C@H]2CO)cc1 | -14 |
| COc1ccc(C2CC(=O)Oc3cc(O)ccc32)cc1 (centres undefined) | -1.0 |
| O=C(CN1CCOCC1)N1CCCCN2[C@H](C1)[C@@H](c1ccc(C#Cc3ccccc3F)cc1)[C@@H]2CO | -4.8 |

(further entries)
SMILES	AF4-AF9 inh
COc1ccc(CN(C)C[C@H]2Oc3ccc(NC(=O)Nc4ccc(F)cc4)cc3CC(=O)N([C@H](C)CO)C[C@@H]2C)cc1	5.0
CC(C)(C)OC(=O)N1CCN(C(=O)c2[nH]c(C(F)(F)F)nc2-c2ccccc2)CC1	-0.6
C[C@@H](O)C#Cc1ccc2c(c1)O[C@H](CN(C)C)[C@@H](C)CN([C@@H](C)CO)S2(=O)=O	-2.1
Cc1noc(C)c1NC(=O)N(C)C[C@@H]1OCCCC[C@H](C)Oc2ccc(NC(=O)Cc3ccccc3)cc2C(=O)N([C@H](C)CO)C[C@H]1C	-0.1
C[C@@H]1CN([C@H](C)CO)C(=O)c2cc(NC(=O)Nc3cccc4ccccc34)ccc2O[C@@H]1CN(C)Cc1ccc(Cl)c(Cl)c1	-2.8
C[C@H]1CN([C@@H](C)CO)C(=O)c2cccc(NC(=O)Nc3ccc4c(c3)OCO4)c2O[C@H]1CN(C)C(=O)Nc1ccc(C(F)(F)F)cc1	6.9
CCCNC(=O)Nc1ccc2c(c1)OC[C@@H](C)N(C(=O)C1CC1)C[C@H](C)[C@H](OC)CN(C)C2=O	-9.5
C[C@@H]1CN([C@H](C)CO)C(=O)c2cc(NC(=O)NC3CCCCC3)ccc2O[C@@H]1CN(C)C(=O)NC1CCCCC1	-2.8
Cc1noc(C)c1S(=O)(=O)Nc1ccc2c(c1)C(=O)N([C@@H](C)CO)C[C@H](C)[C@H](CN(C)C(=O)C1CCCCC1)OCCCC[C@@H](C)O2	-0.7
C[n+]1cc2c3c(ccc2c2ccc4cc5c(cc4c21)OCO5)OCO3	-3.7
C[C@@H]1CCCCO[C@@H](CN(C)C(=O)Nc2cccc3ccccc23)[C@H](C)CN([C@@H](C)CO)C(=O)c2cc(NC(=O)Nc3ccc4c(c3)OCO4)ccc2O1	-0.8
CC(C)NC(=O)Nc1ccc2c(c1)C(=O)N([C@@H](C)CO)C[C@@H](C)[C@@H](CN(C)Cc1ccccc1)OCCCC[C@H](C)O2	9.3
CCCN(C)C[C@@H]1Oc2cc(-c3ccc(C#N)cc3)ccc2S(=O)(=O)N([C@H](C)CO)C[C@@H]1C	-0.2
C[C@@H]1CN([C@@H](C)CO)C(=O)Cc2cc(NC(=O)CCN3CCOCC3)ccc2O[C@@H]1CN(C)C	-2.3
COc1cccc(CNC(=O)[C@H]2CCCN2C(=O)[C@H]2CCCN2C(=O)c2cc(F)cc(F)c2)c1	-7.6
COC1=CC(=O)C=C(OC)C1(O)CC(C)=O	-44
CN(C)CC(=O)N1[C@H](C#N)[C@@H](c2ccccc2-c2ccccc2F)[C@H]1CO	-2.5
O=C(Nc1cccc(C(F)(F)F)c1)c1ccc2sc([C@@H]3O[C@H](CO)[C@H](O)[C@H](O)[C@H]3O)nc2c1	-2.3
C[C@H](CO)N1C[C@H](C)[C@H](CN(C)C(=O)Nc2cc(F)ccc2F)Oc2cc(-c3cccc(C#N)c3)ccc2S1(=O)=O	-0.3
CC(=O)N[C@@H]1C=C[C@H](CC(=O)NCc2ccc(Cl)cc2)O[C@H]1CO	-0.1
O=C(C[C@@H]1C=C[C@H](NC(=O)Nc2ccccc2)[C@@H](CO)O1)NCc1ccccn1	-0.6
C[C@H](CO)N1C[C@H](C)[C@@H](CN(C)CC2CCCCC2)OCCCC[C@H](C)Oc2ccc(NS(=O)(=O)c3cccs3)cc2C1=O	10
COc1ccc(S(=O)(=O)Nc2ccc3c(c2)C(=O)N([C@@H](C)CO)C[C@H](C)[C@H](CN(C)C(=O)NC(C)C)OCCCC[C@@H](C)O3)cc1	-5.2
Cc1noc(C)c1NC(=O)NCC[C@@H]1CC[C@H](NC(=O)Nc2cccc(F)c2)[C@H](CO)O1	4.3
COc1ccc(S(=O)(=O)Nc2ccc3c(c2)CC(=O)N([C@@H](C)CO)C[C@H](C)[C@@H](CN(C)Cc2ccc(C(F)(F)F)cc2)O3)cc1	-0.4
O=C(C1CCCC1)N1[C@@H](CO)[C@@H]2c3ccccc3N(S(=O)(=O)c3ccccc3)C[C@@H]21	0.4
O=C(NCc1ccccc1)[C@@H]1[C@@H](CO)[C@@H]2Cn3c(ccc(/C=C/c4ccccc4)c3=O)[C@H]1N2CC1CC1	-44
C[C@@H]1CN([C@@H](C)CO)C(=O)c2cc(NS(=O)(=O)c3ccccc3)ccc2O[C@@H](C)CCCCO[C@@H]1CN(C)C(=O)CCCN(C)C	-0.6
CCCCNC(=O)C1(C)CCN1C(=O)c1ccc(C)c(F)c1 (centres undefined)	-3.9
CN1OC[C@@H]2CN(Cc3ccc(Cl)cc3)[C@H](c3ccc(-n4ccnc4)cc3)C[C@@H]21	13
CC(C)CC#Cc1cnc2c(c1)C(=O)N([C@@H](C)CO)C[C@@H](C)[C@H](CN(C)C(=O)Nc1cccc(F)c1)O2	1.9
Cc1cc2nc(NC(=O)C3(C)CCN3C(=O)C(C)C)[nH]c2cc1C (centres undefined)	-2.2
CO[C@H](C(=O)N(C)C[C@H]1OCc2ccccc2-c2c(n(C)c3ccccc23)C(=O)N([C@H](C)CO)C[C@H]1C)c1ccccc1	2.9
C[C@@H]1CN([C@H](C)CO)C(=O)c2cccc(N(C)C)c2O[C@H]1CN(C)CC1CC1	-1.9
CS(=O)(=O)Nc1ccc2c(c1)[C@@H]1C[C@@H](CC(=O)NCc3ccc(Cl)cc3)O[C@H](CO)[C@@H]1O2	-2.2
CO[C@@H]1CN(C)C(=O)c2ccc(NS(=O)(=O)c3ccc(F)cc3)cc2OC[C@@H](C)N(C)C[C@H]1C	-1.4
CCCC#Cc1ccc([C@H]2[C@@H](CO)N(C(C)=O)[C@H]2CNC(=O)C2CCC2)cc1	-0.7
CN1C(=O)c2cc(NC(=O)C3CCOCC3)ccc2OC[C@@H]2O[C@H](CC(=O)NCc3ccccc3F)CC[C@H]21	-1.1

A portion of the library (hit frequency here may not be typical).
